Screening results as filed in PubChem.
Vaccinia mCherry – vaccinia inhibition (mCherry reporter); Vaccinia virus mCherry reporter infection, fluorescence; about a quarter of the inactives have no number; Potency, µM (highest dose often 36.5 µM), for inactives: at the highest dose activity change, negative = inhibition, hits mostly inhibitors; hit rate 0.63% among 310,000; AID 720579; active = well fitted inhibition curve with a large enough effect; inconclusive = small, poorly fitted or top-dose-only effect; inactive = no such curve, though single readings can be large or run the other way; tested in A549 cells; further: nearly all actives have a fitted effect of over 35% in size; inactives centre near -10
VACV Venus inh – inhibitors of vaccinia virus (Venus reporter) | Vaccinia virus Venus reporter expression, fluorescence | Potency, µM (top dose mostly 36.5 µM), for inactives: at the highest dose activity change, negative = inhibition, actives largely listed as inhibitors | hit rate 0.46% among 330,000; active means well fitted inhibition curve with a large enough effect; inconclusive means small, poorly fitted or top-dose-only effect; inactive means no such curve, though single readings can be large or run the other way; tested in A549 cells; further: nearly all actives have a fitted effect of over 30% in size; inactives centre near -10
Starred values were filed as active, the others as inactive; i = inactive; ? = inconclusive; / = no result given; & = joins results of further samples. On the % scale 0 is the no-effect control and ±100 the full control effect; potency means the concentration at half of the fitted maximal effect.

SMILES	Vaccinia mCherry	VACV Venus inh
COc1ccc(S(=O)(=O)NC(C)(C)C)cc1-c1nnc2c3ccccc3c(C)nn12	-16%	-10%
COc1ccc(/C=N/n2nnnc2N)c(OC)c1	-13%	-3%
COCCN(Cc1cc2cc(C)c(C)cc2nc1Cl)C(=O)N1CCOCC1	i	-6%
COc1cc2c(cc1-c1cc3cc4ccoc4cc3oc1=O)OCO2	-11%	-9%
O=C(Nc1cccc(-c2nc3ncccc3o2)c1)c1ccco1	-14%	-13%
COc1ccc(C2CC(c3cccs3)=NN2C(=O)CSc2nc(=O)n3cc(C)ccc3n2)cc1 (stereo unspecified)	-27%	-21%
COC(=O)c1ccccc1NC(=O)Cn1c(=O)nc(-c2ccccc2)c2cc(Cl)ccc21	i	-13%
Cc1ccc2nc(SCC(=O)N3CCCCCC3)nc(=O)n2c1	17%	17%
COc1ccccc1N1C(=O)C2C3CC(c4ccccc4)C(C3)C2C1=O (stereo unspecified)	-12%	-8%
C/C(Cl)=C/Cn1c(NCCCn2ccnc2)nc2c1c(=O)[nH]c(=O)n2C	-12%	2%
CCN1C(=O)CC2(C[N+]3(C)CCC2CC3)C1=O (stereo unspecified)	i	-8%
COC(=O)c1sc(C(F)(F)F)c(-c2ccccc2)c1S(=O)(=O)N1CCOCC1	-17%	-7%
Cc1c(C(=O)NCCN2C(=O)S/C(=C\c3cccs3)C2=O)cccc1[N+](=O)[O-]	-8%	-5%
O=C(C1CCN(S(=O)(=O)c2cccc3nsnc23)CC1)N1CCCc2ccccc21	-13%	-18%
COc1ccc(OC)c(NC(=O)C2CCCN(S(=O)(=O)c3ccc4c(c3)CCCC(=O)N4)C2)c1 (stereo unspecified)	-9%	2%
COc1ccc(S(=O)(=O)c2c(Nc3ccc(F)cc3)sc(C(=O)c3ccc(C)cc3C)c2N)cc1	-10%	-17%
O=[N+]([O-])c1ccc(N2CCN(CCO)CC2)c2ncccc12	-12%	-2%
O=C(CSc1nccc(=O)[nH]1)NC1CCCC1	-18%	-3%
c1ccc(Cn2cc(-c3cccnc3)cn2)cc1	i	-8%
Cc1ccc(NC2CCCN(C(=O)c3ccccc3N3CCOCC3)C2)cc1C (stereo unspecified)	?	0%
Cc1nnc2sc(-c3ccc(NC(=O)CSc4ccc(Cl)cc4)cc3)nn12	i	-5%
Cc1cccc2c1-c1sc(C(=O)Nc3ccccc3N3CCN(C)CC3)cc1CO2	-19%	-24%
CC(C)CN(CCNC(=O)CN1C(=O)COc2ccc(S(=O)(=O)N3CCOCC3)cc21)CC(C)C	-1%	-1%
CC1CC(C)CN(c2ncc3c(n2)CC(c2ccccc2Cl)CC3=O)C1 (stereo unspecified)	/	8%

A second format for part of the listing above.
> COc1cc2c(cc1-c1cc3cc4ccoc4cc3oc1=O)OCO2
- Vaccinia mCherry: -11%
- VACV Venus inh: -9%

> O=[N+]([O-])c1ccc(N2CCN(CCO)CC2)c2ncccc12
- Vaccinia mCherry: -12%
- VACV Venus inh: -2%

(further entries)
SMILES	Vaccinia mCherry	VACV Venus inh
COc1cc(/C=N/NC(=O)c2ccc(NC(=O)C3CC3)cc2)ccc1OC(C)=O	i	-6%
COc1ccc(Cn2nnnc2C(c2ccccc2)N2CCN(C3CCCC3)CC2)cc1 (stereo unspecified)	-8%	-14%
FC(F)(F)c1ccccc1NC(=S)N/N=C1\CC2CC=CC12 (stereo unspecified)	-13%	-12%
CCc1ccc(C(=O)C(C)OC(=O)c2nc3nc(C)cc(C)n3n2)cc1 (stereo unspecified)	-5%	-4%
CC(=NCc1ccccc1)c1ccccc1O	-13%	-9%
Cc1cn(CC(=O)N(C)Cc2ccco2)c(=O)[nH]c1=O	i	-13%
O=C(N/N=C/c1cccn1-c1ccc([N+](=O)[O-])cc1)C(O)c1ccccc1 (stereo unspecified)	-6%	-14%
CN(C)c1nc2n(c(=O)n1)CCO2	-15%	-10%
Fc1ccccc1NC(=S)Nc1cccc2cnccc12	-18%	-5%
Oc1ccc(-c2nc3ccc(Cl)cn3c2Nc2ccc3c(c2)OCO3)cc1	1%	1%
COc1cccc(C(C)(O)c2nc(-c3ccoc3)cs2)c1 (stereo unspecified)	-8%	1%
CCOC(=O)c1c(SC)[nH]c2c(Cl)cccc2c1=O	-8%	-9%
CC(=O)Nc1ccc(S(=O)(=O)N2CCCC(C(=O)N3CCN(c4ccccc4)CC3)C2)cc1 (stereo unspecified)	-7%	-9%
COc1cc(SC)ccc1C(=O)NC1CCCc2ccccc21 (stereo unspecified)	-28%	-26%
O=C1OC(C(=O)Nc2ccc(Cl)c(C(F)(F)F)c2)Cc2ccccc21 (stereo unspecified)	-18%	-23%
C/C(=N/N1CCN(c2ccccn2)CC1)c1cccc([N+](=O)[O-])c1	-12%	-2%
CCCCc1nc(SCC(=O)Nc2ccc(S(N)(=O)=O)cc2)n[nH]1	-10%	15%&-7%
O=[N+]([O-])c1cccc2ccc(/C=C/c3cccc(Br)c3)nc12	-3%	-18%
Cn1c(CC(=O)Nc2ccc(F)cc2)nnc1SCC(=O)NC1CCCCC1	i	5%
CCn1c(=O)n(CC)c2cc(N3CCCC3)c(NC(=O)c3ccc(C)c([N+](=O)[O-])c3)cc21	?	-8%
COc1ccc(C)cc1NC(=O)CN(C)S(=O)(=O)c1ccc2[nH]c(=O)oc2c1	14%	1%
Cc1ccc(S(=O)(=O)N(C)C[C@H]2OCc3cnnn3CCCC(=O)N([C@H](C)CO)C[C@H]2C)cc1	-22%	-13%
Cn1c(CSc2nc3ccc(Br)cc3[nH]2)nc2ccccc21	-13%	-17%
CCOC(=O)/C(=N\Nc1ccccc1)P(=O)(c1ccccc1)c1ccccc1	-12%	-21%
COc1cc(/C=C/C(=O)c2ccc(F)cc2)cc(OC)c1OC	0%	-9%
O=C(c1ccncc1)N1N=C(c2ccc(Cl)cc2)CC1c1ccccc1O (stereo unspecified)	-16%	-10%
CN(C(=O)COC(=O)C1CCN(S(=O)(=O)c2ccc3c(c2)OCCO3)CC1)c1ccccc1	-19%	-7%
Cc1ccc(C(=O)Nc2ccccc2C(=O)NCc2ccco2)cc1S(=O)(=O)N1CCCCC1	-12%	-26%
O=C(CSc1n[nH]c(-c2ccco2)n1)Nc1ccc(Br)cc1	-22%	-9%
COc1cccc(-c2nc(SCC(=O)NCc3ccccc3)c3c(=O)n(C)c(=O)n(C)c3n2)c1	-5%	4%
CCN1CCN(C(=O)/C=C/c2ccc(OC)c(OC)c2)CC1	i	-3%
COC(=O)Cc1c(C)c2ccc(OC3CCCCC3=O)c(C)c2oc1=O (stereo unspecified)	-22%	-18%
CCN1CCN(C(c2cccs2)C(C)NC(=O)Oc2ccccc2)CC1 (stereo unspecified)	i	-8%
O=C(CCn1c(=O)oc2ccccc21)Nc1nccs1	2%	0%
Cc1ccc(C(=O)Oc2cccc(NC(=O)c3cccs3)c2)cc1S(=O)(=O)N1CCOCC1	/	18%
O=C(COC(=O)c1ccc([N+](=O)[O-])cc1)Nc1ccc(Cl)cn1	i	-1%
Cc1ccc(Nc2nnc(SCc3ccccc3)s2)cc1	-26%	-18%
O=C(NCCc1ccccc1)C1CCC(=O)N1CCc1ccccc1 (stereo unspecified)	i	-15%
Cc1ccc2cc(CCNC(=O)c3cccs3)c(=O)[nH]c2c1	i	-18%
Cc1cccc(N(C(=O)CNC(=O)c2ccco2)C(C(=O)NCC2CCCO2)c2ccccc2)c1 (stereo unspecified)	i	-6%
CCC(C)(C)n1nnnc1C(c1ccc(OC)cc1)N1CCN(C(=O)c2ccco2)CC1 (stereo unspecified)	-16%	-6%
Cc1ccc(-c2nn3c(C)nnc3s2)cc1NCc1c(F)cccc1Cl	i	0%
C#CCn1c(=NC(=O)c2sc3ccccc3c2Cl)sc2cc(S(N)(=O)=O)ccc21	i	-9%
c1ccc(-c2nc[nH]c2-c2ccccc2)cc1	-1%	-17%
O=C(O)Cc1ccc(NS(=O)(=O)c2c(Cl)cccc2Cl)cc1	?	-6%
COc1ccc(NC(=S)NC(=O)c2cccnc2)cc1	i	-7%
COc1ccc(C)cc1-n1c(SCC(=O)NCc2ccco2)nc2c([nH]c3ccccc32)c1=O	-10%	-18%
O=C(Nc1ccc(Br)cc1Br)c1cccc2c1C(=O)N(C1CCCCC1)C2	-21%	-6%

Another view of two compounds above:
Second line of a record – Vaccinia mCherry	VACV Venus inh
Cc1ccc2cc(CCNC(=O)c3cccs3)c(=O)[nH]c2c1
 : i	-18%
Cc1cccc(N(C(=O)CNC(=O)c2ccco2)C(C(=O)NCC2CCCO2)c2ccccc2)c1 (stereo unspecified)
 : i	-6%

Remaining list, next part:
SMILES	Vaccinia mCherry	VACV Venus inh
O=C(NN=C1CCCCCCCCCCC1)c1cccc(S(=O)(=O)N2CCOCC2)c1	-5%	-6%
CCCCNC(=S)N1CCN(Cc2ccc3c(c2)OCO3)CC1	-4%	-7%
CCC(Sc1nc(N)c(NC(=O)c2ccco2)c(=O)[nH]1)C(=O)O (stereo unspecified)	-11%	-6%
Cc1[nH]c2ccccc2c1C(=O)c1cc(Cc2ccccc2)sc1N	?	?
CCOc1cc(CNCCO)cc(Br)c1OCc1cccs1	-22%	?
Cc1ccc(OCc2n[nH]c(=S)n2Cc2ccccc2)cc1	-4%	-20%
CCCC(C(=O)Nc1cccc(S(=O)(=O)N2CCCC2)c1)c1ccccc1 (stereo unspecified)	?	-14%
N#CC(C(=O)Nc1cccc(Cl)c1)=C1Nc2ccccc2N1	/	?
CCOc1ccc(Br)cc1S(=O)(=O)Nc1ccc(Cl)c(S(=O)(=O)N(C)C)c1	-15%	-15%
Cc1ccc(NC(=O)CC(c2ccc(F)cc2)N2Cc3ccccc3C2=O)cc1C (stereo unspecified)	-13%	-11%
CCOc1ccc2nc(NC(=O)C(CCSC)NS(=O)(=O)c3cccs3)sc2c1 (stereo unspecified)	/	-27%
NP(=O)(OCCCc1ccccc1)Oc1ccccc1 (stereo unspecified)	i	-13%
Nc1nn(-c2ccccc2)c(N)c1N=Nc1ccccc1	-22%	?
O=C(c1ccccc1)n1nnc2ccccc21	-9%	-10%
CCNC(=O)c1ccc(CSc2nc3ccncc3n2Cc2ccc(F)cc2)cc1	-4%	-12%
CCS(=O)(=O)N1Cc2ccccc2CC1C(=O)N(C)Cc1ccc(OC)c(F)c1 (stereo unspecified)	2%	3%
Cc1ccc([C@H]2C[C@@H](O)[C@H](n3cc(C4CC4)nn3)CN2C(=O)C2CCCCC2)cc1	i	-20%
Cc1cc(C)cc(NC(=O)N2c3ccccc3NC(=O)CC2C)c1 (stereo unspecified)	-3%	-8%
COc1ccc(S(=O)(=O)Nc2cccc3c2O[C@H](CN(C)S(=O)(=O)c2ccc(OC)cc2)[C@@H](C)CN([C@H](C)CO)C3=O)cc1	?	-26%
O=C1CCCC(=NCc2ccco2)C1	-19%	1%
Cc1nn(Cc2ccccc2)c(C)c1/C=N/NC(=O)c1cccnc1	i	-10%
O=C1c2ccccc2C(=O)N1CCc1c(-c2[nH]c3ccccc3c2CCN2C(=O)c3ccccc3C2=O)[nH]c2ccccc12	-8%	-13%
CN1CCN(C(=S)NC(=O)c2ccc(C(C)(C)C)cc2)CC1	-23%	-17%
COc1ccc(CSCC(=O)N/N=C/c2ccccc2O)cc1	?	-28%

A few values from above.
O=C1CCCC(=NCc2ccco2)C1 – Vaccinia mCherry: -19%
CN1CCN(C(=S)NC(=O)c2ccc(C(C)(C)C)cc2)CC1 – VACV Venus inh: -17%
Cc1nn(Cc2ccccc2)c(C)c1/C=N/NC(=O)c1cccnc1 – VACV Venus inh: -10%
Cc1cc(C)cc(NC(=O)N2c3ccccc3NC(=O)CC2C)c1 (stereo unspecified) – Vaccinia mCherry: -3%
CCNC(=O)c1ccc(CSc2nc3ccncc3n2Cc2ccc(F)cc2)cc1 – VACV Venus inh: -12%
O=C1c2ccccc2C(=O)N1CCc1c(-c2[nH]c3ccccc3c2CCN2C(=O)c3ccccc3C2=O)[nH]c2ccccc12 – Vaccinia mCherry: -8%
CCS(=O)(=O)N1Cc2ccccc2CC1C(=O)N(C)Cc1ccc(OC)c(F)c1 (stereo unspecified) – VACV Venus inh: 3%

Later entries.
SMILES	Vaccinia mCherry	VACV Venus inh
O=C(COC(=O)c1cccc(F)c1)Nc1cccnc1Cl	i	-12%
CCOc1ccccc1NC(=O)c1ccc2[nH]c(C)c(C)c2c1	?	-10%
CCOC(=O)c1ccc(NC(=S)N2CCN(C)CC2)cc1	-4%	-11%
Cc1ccc(S(=O)(=O)N2C[C@H]3[C@H]4C(=O)N(C)C(=O)[C@H]4CC(=O)[C@H]3[C@@H]2c2ccccc2Cl)cc1	i	-3%
COc1ccc(-c2ccc(-c3cc(=O)oc4cc(OC)c(OC)c(OC)c34)cc2)cc1F	-5%	-13%
O=C(COC(=O)c1cccnc1Cl)c1ccc2c(c1)OCCO2	i	-12%
COc1ccc(-c2onc(C)c2C)cc1S(=O)(=O)NCC(C)c1ccccc1 (stereo unspecified)	i	-28%
Cc1cc(C)n(CCC(=O)N2CCN(S(=O)(=O)c3ccccc3)CC2)n1	-7%	-8%
Cc1ccc2nc(NCc3ccccc3)c(C=NCc3cccnc3)c(=O)n2c1	-14%	-10%
CC(c1ccccc1)n1cc(C(=O)NCc2ccccn2)nn1 (stereo unspecified)	-6%	3%
COc1ccc(C=CC(=O)c2ccc(OC)c(OC)c2O)cc1OC	-2%	-4%
CC(CN1CCCCC1)OC(=O)c1ccc2c(c1)OCO2 (stereo unspecified)	/	-8%
Cc1ccc(N2CC(C(=O)Nc3nc4ccc(S(C)(=O)=O)cc4s3)CC2=O)cc1 (stereo unspecified)	i	1%
CCCc1ccc(Oc2cc(Cl)nc(N)n2)cc1	-7%	-19%
O=C(NCc1ccccc1F)c1ccc(S(=O)(=O)N2CCCC2)cc1	i	-9%
